MT1-MMP act inh: inhibitors of human MT1-MMP activation. 0.061% of 360,000 active. P50281. HT1080 RFP-PRO-GFP cells, GFP/RFP ratio fluorescence, overnight; percent of plate control window, DMSO zero. GFP/RFP ratio change, % at 20 µM. AID 651647;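 active means GFP/RFP ratio change of at least 30% with cell ATP level not reduced by more than half and red fluorescence within 50% of control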; further: strong numbers were not always called active
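Test system: HT1080 RFP-PRO-GFP cells; Benchmarks: DMSO and RFP-L50D-GFP cell wells; Timing: cells overnight before dosing, compound overnight, 37 °C, 5% CO2; Compound: one 20 µM compound dose with 1% DMSO; Read-out: GFP/RFP fluorescence ratio.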
Rce1 inhib: yeast Ras-converting enzyme inhibition. yeast membranes, quenched prenylated peptide cleavage fluorescence. calls only. 0.27% of 290,000 active;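 active means fall in fluorescence gain of 50% or more versus controls, with final raw signal at or below 3038400; inconclusive means same 50% fall but final raw signal above 3038400; inactive means fall in fluorescence gain under 50%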;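 further: plate controls were neutral control wells for no effect and wells lacking membranes for full effect; tested at 10 µM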
Target sequence (Q03530 whole entry, looked up): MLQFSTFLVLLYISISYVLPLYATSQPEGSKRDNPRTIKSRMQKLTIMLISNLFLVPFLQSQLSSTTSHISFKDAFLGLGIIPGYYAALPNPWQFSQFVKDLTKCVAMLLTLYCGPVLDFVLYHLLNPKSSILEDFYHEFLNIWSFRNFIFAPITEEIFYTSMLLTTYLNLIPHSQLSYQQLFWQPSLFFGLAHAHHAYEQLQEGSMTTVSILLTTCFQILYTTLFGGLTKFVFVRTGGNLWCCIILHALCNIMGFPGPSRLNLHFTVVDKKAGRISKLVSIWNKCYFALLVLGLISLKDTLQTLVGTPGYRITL
eIF4H inh: inhibitors of RNA binding by human eIF4H; AID 2012; 0.94% of 290,000 active; Q15056; inhibition, % at 35 µM; eIF4H fluorescence polarization binding assay;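 active means 50% or more with normal probe brightness, or confirmed in later tests; inconclusive means above 50% with abnormal brightness, or retests that disagree; inactive means below 50% or failed in later tests; about a fifth of its hits are not listed in these tables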;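 further: calls also rest on retests at 20 µM and on dose response follow-up; 0% = protein and probe with vehicle and 100% = probe without protein; strong numbers were not always called active; many hits fall short of the cut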
PABP FP inh: blocks human PABP binding to poly(A) RNA. 1% of 290,000 active. fluorescence polarization. AID 2014. inhibition, % at 35 µM. P11940;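 active means 50% or more with normal probe brightness, or confirmed in later tests; inconclusive means above 50% with abnormal brightness, or retests that disagree; inactive means below 50% or failed in later tests; about a fifth of its hits are not listed in these tables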;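 further: calls also rest on retests at 20 µM and on dose response follow-up; controls were probe without protein and protein plus probe with vehicle; some compounds called inactive have numbers as strong as hits; many hits fall short of the cut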
Yeast UUG start: alters start codon recognition fidelity in yeast | S. cerevisiae UUG-firefly luciferase reporter, luminescence/redox ratio | activity score, % at 18.7 µM | 0.13% of 350,000 active | AID 602363;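 active means replicate mean at a twofold rise or more, about +100% in these data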;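 further: firefly luciferase made from a UUG start codon reports start codon fidelity; reporter light over untreated wells divided by growth signal over untreated wells; some hits fall short of that in this replicate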
HIV Env fusion: inhibitors of HIV Env-mediated cell fusion. inhibition, % at 12.3 µM. HeLa-JRFL Env/CEM21 cell fusion, luciferase. 1.1% of 360,000 active;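 active means mean replicate inhibition score of at least 50 and every replicate individually at or above 50; inconclusive means only one of the two criteria met; inactive means mean below 50 and not all replicates reaching 50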;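 further: 0% = plate neutral controls and 100% = maraviroc near 300 nM; one replicate is shown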
CSC inhib: cancer stem cell inhibition. cancer stem cell-like cells viability, luminescence. inhibition, % at 7.5 µM. 1.1% of 300,000 active;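 active means mean at 75% or more and at least half the replicates too; inconclusive means mean and replicates disagree; tested in HMLE shEcad cells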;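 further: 0% = median of negative and 100% = median of positive control wells; the first replicate is given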
MT1-MMP act inh RFP: also measured in MT1-MMP act inh; calls as there; RFP signal change, %; measured here: RFP expression control read;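 0 = vehicle wells; hits needed this value within 50% of zero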
* hit, by the source's call; i = inactive; ? = inconclusive; . = not tested or not shown; + = active, no number; & = joins results of further samples. This is a subset. The share of hits here may be higher or lower than overall.

Second line of a record – PABP FP inh, MT1-MMP act inh RFP, HIV Env fusion, Yeast UUG start, MT1-MMP act inh, Rce1 inhib, eIF4H inh, CSC inhib
C[C@H](NS(=O)(=O)OCC(Cl)(Cl)Cl)C1CC1c1ccccc1 (stereo partly drawn)
    12, 1, 5, 5, 2, i, -3, 40
Cc1ccc(OCC(=O)O/N=C(\N)c2ccncc2)c(C)c1
    4, -3, -87, -15, 2, i, -7, .
OCCN(CCO)c1nc2ccccc2[nH]1
    5, 0, 0, ., 1, i, -3, -20
O=C(Cn1nc(-c2ccccc2)ccc1=O)NCC1COCCO1 (stereo not drawn)
    8, -2, -9, -19, -4, i, 1, -7
NC(=O)c1ccc(NC(=O)COC(=O)CCc2ccc(S(=O)(=O)N3CCCCC3)cc2)cc1
    -20, 6, -7, -11, 0, i, -6, -7
O=C(CN1CCC(n2nnc3cc(C(F)(F)F)ccc32)CC1)N1CCc2ccccc21
    -6, -10, ., -32, 4, i, -7, .
Cc1ccc(S(=O)(=O)N(C)c2ccc3c(c2)C(=O)c2ccccc2-3)cc1
    ., 1, 15, -11, 3, ., ., .
O=S(=O)(c1ccc(N2CCCC2)cc1)C(F)(F)F
    9, -13, ?, -4, 0, i, 1, -1
COCCCNC(NC(=O)c1ccc(Cl)cc1)C(Cl)(Cl)Cl (stereo not drawn)
    -11, -5, ., -33, -1, i, -12, .
CN(Cc1ccccc1)C(=S)Nc1ccc(OC(F)F)cc1
    -9, 3, 10, ., 4, i, -3, .
CC(O)c1ccc(Oc2cnccn2)cc1 (stereo not drawn)
    -6, 3, 2, -15, -1, i, -7, -5
CCOc1ccc(NC(=O)CSc2nnnn2C2CCCC2)cc1
    9, 3, -7, -14, 0, ., -15, 3
C#CCOCCOCCOCCNc1nc(N2CCN(C(=O)[C@H](CCCN=C(N)N)n3cc(C(N)[C@@H](C)CC)nn3)CC2)nc(N2CCN(C(=O)[C@H](CC(N)=O)n3cc([C@@H](N)C(C)C)nn3)CC2)n1 (stereo partly drawn)
    ., 6, -8, 45, 2, ., ., .
Cc1c(C(=O)NC(=S)N(Cc2ccccc2)c2ccccn2)cccc1[N+](=O)[O-]
    ., 1, ., 19, -1, ., ., -16
C=CCn1c(SCC(=O)Nc2ccc3c(c2)OCCO3)nnc1-c1ccco1
    4, 3, ., -21, 7, i, 28, -8
C[C@H]1CN([C@@H](C)CO)C(=O)CCCn2cc(nn2)CO[C@@H]1CN(C)C(=O)Nc1ccc2c(c1)OCCO2
    ., 6, 6, 6&9, 5, ., ., .
CCN(c1cccc(C)c1)S(=O)(=O)c1cnc[nH]1
    2, 5, -18, ., 2, i, 0, -5
CCCn1nc(C(=O)NNC(=O)CCCOc2ccc(C)cc2)c2ccccc2c1=O
    -4, -4, 18, -12, 1, i, -12, -8
O=C(N/N=C/c1ccc2c(c1)OCO2)C(=O)Nc1cccc(Cl)c1
    9, 5, -8, -17, 5, i, -5, .
COc1ccc(NC(=O)C2(c3cccs3)CCOCC2)cc1
    -2, 5, 5, -7, 3, i, -5, -15
O=C1CN(C(=O)CSc2nnnn2-c2ccc(Cl)cc2)c2ccccc2N1
    0, -2, ., -17, -3, i, 5, -7
COc1ccc(OC)c(NC(=O)COC(=O)CSc2ccc(Cl)cc2)c1
    -1, 6, ., -31, 2, i, 2, -8
CCOCC(=O)Nc1ccc([N+](=O)[O-])cc1OC
    -15, 6, -3, -9, 3, i, -2, -6
O=C(CO/N=C/c1ccc(Cl)cc1Cl)NNC(=O)c1ccc(Cl)cc1Cl
    -3, 5, -17, ., 1, i, 2, -16
O=C(O)CCN=CC1=C(O)CC(c2ccccc2)CC1=O (stereo not drawn)
    12, 0, -13, 0, -2, i, -10, 3
CCOC(=O)c1cnc(SC)nc1Oc1cccc(NC(=O)c2ccc(C)cc2)c1
    6, 0, ., -3, -3, i, -2, 8
COc1cc(/C=N/n2c(-c3ccccc3)n[nH]c2=S)cc(OC)c1OC
    10, 1, 11, -3, 10, ., -4, 45
O=C(CN(CCCN1CCOCC1)C(=O)Cn1nnc(-c2ccc(F)cc2)n1)NC1CCCCC1
    -2, 2, 23, 3, 2, i, 3, 19
CN(C)C(=O)NC1C=CS(=O)(=O)C1 (stereo not drawn)
    5, 1, -27, -11, 6, ., 5, -6
CCOc1ccc(N(CC(=O)N/N=C/c2ccccn2)S(=O)(=O)c2ccc(Cl)cc2)cc1
    -10, -3, 6, -13, 0, i, 6, 1

Going on with the list.
Second line of a record – PABP FP inh, MT1-MMP act inh RFP, HIV Env fusion, Yeast UUG start, MT1-MMP act inh, Rce1 inhib, eIF4H inh, CSC inhib
COc1ccc(-c2oc(=O)c3cc(OC)c(OC)cc3c2/C=C/c2ccc(F)cc2)cc1
    ., -3, -16, -12, 0, ., ., -25
NC(=S)N=Nc1c(O)[nH]c2ccc(F)cc12
    4, 3, ., ., 8, i, 9, 6
CCOC(=O)c1c(NC(=O)CNC2CCCCC2)sc(C)c1C
    -7, -3, -2, ., 2, i, 1, 59
COC(C(=O)Nc1ccccc1C(=O)N1CCOCC1)c1ccccc1 (stereo not drawn)
    6, 5, -8, -10, 1, i, 0, .
O=C(CCCc1nc(-c2ccccc2)no1)NC1CCCCC1
    -2, -1, 12, -10, 0, i, -3, -14
Cc1ccc(NC(=O)CN(C)C(=O)COc2ccccc2-c2ccccc2)cc1
    ., -1, 24, -8, -2, ., ., 25
CSc1nc2c(c(=O)[nH]1)C(c1ccc(Cl)cc1)CC(=O)N2 (stereo not drawn)
    -25, 1, -1, ., 1, i, -4, -4
CCCC(O)(c1ccc(CC)cc1)C(CN1CCOCC1)c1ccccc1 (stereo not drawn)
    8, -20, 27, 5, -22, i, 0, -2
Cc1ccc2cc3cc(C(=O)NCCCN4CCc5ccccc5C4)oc3nc2c1
    2, -13, -20, -7, 6, i, -10, 4
CCn1ccnc1CN(C)Cc1cn(C)nc1-c1ccccc1F
    -5, -1, 8, ., -8, i, 1, -11
CCOCCCNC(=O)c1cc2c(=O)n3cccc(C)c3nc2n1C
    10, 2, -28, -9, 17, i, -5, 50
COc1cccc(C2CN(c3ccc(F)cc3F)N=C2c2cccs2)c1OC (stereo not drawn)
    -2, -4, 19, -14, -2, i, -12, 19
Cc1ccc(C(=O)NCC(=O)N2CCN(c3ncccn3)CC2)s1
    5, 0, 11, -9, -4, i, 1, 7
COc1cc(NC(=O)c2ccccc2)c(OC)cc1NC(=O)Cc1ccc(F)cc1
    13, -3, 11, 3, 4, i, 2, -10
CC(=O)Nc1cccc(NC(=O)C(=O)c2cn(CC(=O)N3CCCCC3)c3ccccc23)c1
    -8, 2, -6, ., 2, i, 23, -8
Cc1cc(S(=O)(=O)N2CCN(C(=O)c3ccco3)CC2)ccc1F
    1, -2, -2, -19, -1, i, 4, -9
C#CCNCCS(=O)(=O)N(Cc1ccc(Br)cc1)[C@@H](CC(C)C)C(=O)O
    ., 4, 21, 1, 4, ., ., .
O=C(Nc1ccc(Cl)c(Cl)c1)OCc1cccnc1
    -7, -2, -119, -8, 13, i, -4, 4
O=C(Nc1c2c(nn1-c1ccc(F)cc1)CS(=O)(=O)C2)C1CCCC1
    -2, 2, -19, -21, -3, i, -14, -15
CC(=O)C1C(c2cn(-c3ccccc3)nc2-c2cccs2)NC(=O)NC1(O)C(F)(F)F (stereo not drawn)
    0, 1, ., ., -3, i, -8, .
O=[N+]([O-])c1ccccc1S(=O)(=O)NC1CC2CCC1C2 (stereo not drawn)
    0, -1, 3, -13, -4, i, -3, -8
Cc1nc(Cl)sc1C(=O)Nc1ccc(C(F)(F)F)cc1
    1, -3, -11, 2, 1, i, -5, -2
CC1CC1c1ccc(/C=C(\C#N)C(=O)Nc2ccc(Cl)cc2)o1 (stereo not drawn)
    -15, -7, -78, ., -3, i, -7, 14
COc1ccccc1N(CC(=O)N1CCOCC1)S(C)(=O)=O
    9, 4, 2, -5, -1, i, 1, -3
Cc1ccc(NC(=S)N2CCC(NC(=O)c3cccc(F)c3)CC2)cc1
    4, 2, 8, -22, -1, i, -8, .
Cc1ccc(-n2c(SCC(=O)N3CCCc4ccccc43)nnc2-c2cccnc2)c(C)c1
    -6, -7, 39, ., -10, ., 27, -1
COc1cccc(NC(=O)C2CCCN2C(=O)Nc2ccccc2F)c1 (stereo not drawn)
    -1, 5, ., ., 3, i, -4, 3
COc1ccc(/C=C/C(=O)Oc2ccc(C)cc2)cc1
    5, 3, 35, -4, 1, i, -15, -2
COc1cc(OC)nc(/N=C/N(C)C)n1
    -2, 3, 2, ., 2, ., -5, .
CC(Oc1ccc(Cl)cc1Cl)C(=O)NNC(=O)c1cccnc1 (stereo not drawn)
    -7, 0, 3, ., 1, i, -10, -1

Following part.
Second line of a record – PABP FP inh, MT1-MMP act inh RFP, HIV Env fusion, Yeast UUG start, MT1-MMP act inh, Rce1 inhib, eIF4H inh, CSC inhib
O=S(=O)(Cc1ccccc1)N1CCN(C2Cc3ccccc3C2)CC1
    -10, -3, 10, -28, -1, i, -12, -5
COc1ccc(CN2CCNC(=O)C2CC(=O)NCC2CCOCC2)cc1C (stereo not drawn)
    7, 3, -19, 1, -7, i, 9, .
Cc1[nH]c2ccccc2c1/C=N/Nc1nc2ccccc2[nH]1
    -6, -13, -76, -17, 18, i, 6, 44
COc1cc([N+](=O)[O-])cc(/C=N/NC(=O)c2ccc(NC(=O)c3ccc(C)cc3)cc2)c1O
    -3, -41, 46, ., -55, i, 7, .
O=C(O)CSCC(=O)Nc1ccc(-c2nc3ccccc3s2)cc1
    17, 6, 16, -16, 4, +, 24, 18
COc1ccc(Cl)cc1C1=NOC2(CCC2)C(=O)N1Cc1ccc(NC(C)=O)cc1
    ., -1, 67*, -7, 1, ., ., .
CC/C(=N\NC(N)=O)c1ccc(OC(F)F)cc1
    3, -3, 7, 6, -7, i, 6, -5
Cc1cccnc1NC(=S)NC(=O)c1oc2ccccc2c1C
    0, -4, -52, -15, -1, i, 3, -13
Cc1ccc(NC(=O)CCl)cc1S(=O)(=O)N1CCCCCC1
    -6, -2, -18, ., -3, i, -7, 71
O=C(NCC(c1ccco1)N1CCCC1)c1cccc(S(=O)(=O)N2CCc3ccccc32)c1 (stereo not drawn)
    ., -5, 14, 7, -1, ., ., .
CCc1ccc(CN2CCC(n3nccc3NC(=O)c3ccccc3Cl)CC2)cc1
    -13, -6, 13, -16, 2, i, -12, 5
COc1ccc(C(=O)C2CCCN(C(=O)c3cc(C)on3)C2)cc1F (stereo not drawn)
    -12, 1, 16, -4, -5, i, -10, -2
COc1cccc(/C=N/NC(=O)CNC(=O)c2ccco2)c1O
    -7, 6, 8, ., 4, i, 5, 4
COc1ccc(NC(=S)NC(=O)c2cncc(Br)c2)cc1
    ., -6, 2, ., -6, i, ., -24
COc1ccc2c(c1OC)C(=O)N1N=C(c3ccc(O)cc3)CC21 (stereo not drawn)
    -1, 2, ., ., 4, i, -9, 2
O=C(CSc1ccc(-c2ccc(F)cc2)nn1)N1CCCc2ccccc21
    -18, -5, 7, -9, -1, i, -10, 5
O=S(=O)(Nc1cccc(Cl)c1)c1ccc(-n2cccn2)cc1
    -8, -2, 6, -12, 3, i, -10, 6
CCN1C(=O)/C(=C\c2cn(-c3ccccc3)nc2-c2cccnc2)SC1=S
    -9, -4, -4, 0, -7, i, 12, .
CCOC(=O)C1CCN(S(=O)(=O)c2ccc(C(C)=O)cc2)CC1
    14, -3, ., -7, -1, i, 4, 7
O=C(Nc1ccccc1C(=O)N1CCCC1)c1cccc(S(=O)(=O)N2CCCCC2)c1
    -7, -4, ., -4, 0, i, -2, -5
O=C(CSc1nnc(-c2ccc3c(c2)OCO3)n1-c1ccccc1)c1ccc(Cl)cc1
    9, -3, ., 1, 0, i, -2, 2

Compound activity: PubChem, several laboratories
